gsp agonist = gsp mutant agonism; gsp mutant cells, cAMP HTRF, 30 min; control for the full effect not named in the record; Potency, µM (doses to about 76.9 µM), for the others: at the top dose activation (cAMP increase), actives largely listed as activators; 0.13% of 340,000 active; AID 624287; active = well fitted activation curve with a large enough effect; inconclusive = small, poorly fitted or top-dose-only effect, or another doubt; inactive = no such curve, though single readings can be large or run the other way; cell line not stated here;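 also: phosphodiesterase inhibitor Ro 20-1724 added with compounds to block cAMP breakdown; potency is read from the fitted curve at half-maximal effect; nearly all actives have a fitted effect of over 60% in size; about a fifth of the inactives were tested at one dose only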
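Cells in DMEM/10% FBS with G418 were pretreated with compounds in DMSO plus […] (300 uM stock) for 30 min at 37C. cAMP was measured by HTRF (cAMP-d2 plus anti-cAMP antibody-K) after 30 min at room temperature.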
D2 PAM = positive allosteric modulators of human D2 dopamine receptor | P14416 | DiscoveRx D2 beta-arrestin cells, luminescence, 90 min; 100% = 57 uM dopamine signal | potentiation, % (no concentration beside the values) | 0.23% of 360,000 active | AID 624464; active = potentiation of 50% or more; inconclusive = 30% to 50%; inactive = 30% or less;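 also: compound concentration not given in the record; tested on top of an EC20 dose of dopamine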
Target sequence (P14416 whole entry, looked up): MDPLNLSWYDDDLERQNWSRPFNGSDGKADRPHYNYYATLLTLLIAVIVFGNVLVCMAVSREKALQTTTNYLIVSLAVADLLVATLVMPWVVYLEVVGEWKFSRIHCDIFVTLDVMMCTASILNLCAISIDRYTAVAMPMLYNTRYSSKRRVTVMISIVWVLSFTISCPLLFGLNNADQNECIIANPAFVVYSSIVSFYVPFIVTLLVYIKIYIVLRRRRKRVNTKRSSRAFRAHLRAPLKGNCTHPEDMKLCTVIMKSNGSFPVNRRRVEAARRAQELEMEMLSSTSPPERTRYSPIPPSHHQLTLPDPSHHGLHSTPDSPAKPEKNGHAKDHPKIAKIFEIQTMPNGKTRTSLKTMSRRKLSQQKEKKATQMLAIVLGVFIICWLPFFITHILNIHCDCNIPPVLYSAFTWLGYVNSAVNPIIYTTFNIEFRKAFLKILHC
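PathHunter D2 cells, attached overnight at 37 deg C, received compound in DMSO plus dopamine at EC20 (50 nM final) for 90 min at 37 deg C. Beta-arrestin recruitment was read as luminescence after 1 h with detection reagent at ambient temperature.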
gsp antag = gsp mutant antagonism | Potency, µM (titrated, usually from 76.9 µM), for the others: at the top dose activity change, negative = inhibition, most hits filed as inhibitors | AID 624288 | gsp-mutant cells, cAMP HTRF, 30 min; control for the full effect not named in the record | 0.4% of 340,000 active; active = falling curve of any shape with a large fitted effect; inconclusive = falling curve, mostly with a smaller effect; inactive = flat or rising curve; cell line not stated here;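 also: intracellular cAMP measured with PDE inhibitor Ro 20-1724 present during compound exposure; potency is read from the fitted curve at half-maximal effect; % is scaled to controls: 0 for no effect and ±100 for the full control effect; nearly all actives have a fitted effect of over 65% in size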
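Measurement of cellular cAMP by homogeneous time-resolved fluorescence following a 30 min compound exposure at 37C. The PDE inhibitor […] was present throughout; the assay buffer was DPBS with 0.05% BSA and 0.005% Tween 20.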
Sfp inh = inhibitors of Bacillus subtilis Sfp phosphopantetheinyl transferase | Q9F4F7 | Biochemical Sfp PPTase activity, qHTS | Potency, µM, without a hit: max response, negative = inhibition, usual class: inhibitors | 3.5% of 310,000 active; active = well fitted inhibition curve with a large enough effect; inconclusive = small, poorly fitted or top-dose-only effect, or another doubt; inactive = no such curve, though single readings can be large or run the other way;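 also: the enzyme is Sfp with the accession as filed and its product quenches rhodamine fluorescence; potency is read from the fitted curve at half-maximal effect; 0% = enzyme reaction without inhibitor and -100% = no enzyme wells; top concentration of the series not given in the record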
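Reaction rates are the 30-min fluorescence difference (ex 525, em 598 nm) in wells containing 15 nM Sfp, 5 uM rhodamine-CoA and 12.5 uM BHQ-2-YbbR at pH 7.6 with 10 mM MgCl2.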
Menin-MLL FL inh = displaces fluorescein MLL peptide from human menin; 290,000 tested, under 10 active; Fluorescence polarization, fluorescein-MLL peptide displacement from menin; FP activity change, % at 61.4 µM; inconclusive = falling polarisation curve, or a change in total fluorescence; inactive = total fluorescence flat and polarisation flat or rising; no compound was filed as active; the % refers to the polarisation; negative = inhibition;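 also: % of control where 0% means no effect; inhibitors lower the polarisation; unlabelled MLL peptide was the positive control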
TRPV1 PAM = human TRPV1 potentiation | Q8NER1 | TRPV1-expressing cells, Fluo-8 calcium influx, capsaicin EC20 potentiation; host cell line not named in the record; control for the full effect not named in the record | potentiation, % at 8.33 µM | 0.02% of 320,000 active | AID 540277; active means potentiation above 80%; inconclusive means 30% to 80%; inactive means below 30%; also: 0% is about no effect
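Cells expressing TRPV1 were dye-loaded with Fluo-8 and read kinetically: 10 s baseline, 3 min after compound (agonist portion), then 2 min after EC20 capsaicin (allosteric enhancer portion). Calcium-bound dye fluorescence at 480/520 nm.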
ClpP mod = qHTS Assay for Activators of ClpP | ATP-dependent Clp protease proteolytic subunit (Bacillus subtilis (strain 168)), P80244 | purified B. subtilis ClpP, FRET peptide cleavage, 20 min | Potency, µM (doses to about 57.5 µM), without a hit: top-dose activity change, negative = active | 1.9% of 340,000 active | AID 651965, 2013; active = well fitted falling curve with a large enough effect; inconclusive = small, poorly fitted or top-dose-only effect; inactive = no such curve, though single readings can be large or run the other way; also: potency is read from the fitted curve at half-maximal effect; the source files actives as falling curves though it sought activators and does not explain the sign; nearly all actives have a fitted effect of over 65% in size; many hits overshoot -100%
Target sequence (P80244 whole entry, looked up): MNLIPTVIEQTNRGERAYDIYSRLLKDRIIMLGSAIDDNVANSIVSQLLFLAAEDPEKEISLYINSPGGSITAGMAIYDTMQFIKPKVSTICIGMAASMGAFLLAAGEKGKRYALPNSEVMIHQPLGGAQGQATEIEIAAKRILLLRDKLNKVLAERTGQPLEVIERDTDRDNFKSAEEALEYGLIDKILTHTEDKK
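Purified B. subtilis ClpP, 10 microg/mL final in Tris/HCl pH8 with KCl, BSA, glycerol and Tween-20, cleaved an Abz/nitrotyrosine-quenched decapeptide. Fluorescence (ex 320, em 430) was read at 0 and 20 min at room temperature. Delta was normalized to 5.8 microM ADEP and DMSO/no-enzyme controls.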
* marks the source's active call; other numbers are inactive results; ? = inconclusive; . = no result given; [ ] = dose if it differs, or a comment. Rows are unselected; about 5.1% have a hit in one of these screens.

canonical_smiles	gsp agonist	D2 PAM	gsp antag	Sfp inh	Menin-MLL FL inh	TRPV1 PAM	ClpP mod
CCCCC(=O)Nc1ccc(C(=O)NNC(=O)c2ccc(C)c(Br)c2)cc1	3%[15.4 µM]	-7	0%	9%	-1.3	-2	-1.7%
Cc1ccc(-n2nc3c(=O)n(CC(=O)NCCc4cccs4)nc(C)c3c2C)cc1	11%	-17	-12%	8%	2.4	-2	-3.4%
O=C(CN1C(=O)NC2(CCCCCCC2)C1=O)Nc1ccc(Br)cc1	-4%	-5	1%	.	.	-2	0.4%
Cc1ccc(-c2ccnc(=S)[nH]2)cc1	?	-18	-2%	0%	-1.4	?	-1.9%
COCCOC(=O)c1c(C)n(C)c2ccc(OC(=O)c3c(OC)cccc3OC)cc12	-31%[inhibitor]	1	-1%	28µM*	-0.6	19	1.1%
C=CCn1c(CCNC(=O)c2ccccc2F)nnc1SCC(=O)Nc1nc(C)cs1	1%	-19	-1%[15.4 µM]	8%	1.4	-29	-12%
CN(Cc1ccccc1)c1ccc(S(=O)(=O)N2CCC(C(=O)O)CC2)cc1[N+](=O)[O-]	6%	-2	-8%	10%	3.8	4	.
O=S(=O)(O)c1nc2ccccc2n1Cc1ccccc1	-7%	7	18%	0%	3.7	9	-6.2%
Cc1ccc(C(=O)NCC(=O)Nc2ccc3c(c2)CCC3)cc1	-54%[inhibitor]	-10	1%	.	.	.	.
CC(=O)Nc1nc(-c2ccc3c(c2)CC(C)N3C(=O)C2CC2)c(C)s1 (stereo not given)	8%[15.4 µM]	6	-23%	50µM*	1.6	1	.
O=S(=O)(NNc1ncc(C(F)(F)F)cc1Cl)c1ccc(F)cc1F	-83%[inhibitor]	4	2%	.	.	.	-1.2%
C=CCOc1cccc(C2/C(=C(/O)c3ccc(C)cc3)C(=O)C(=O)N2CCN2CCOCC2)c1 (stereo not given)	?	-10	1%	0%	-0.8	7	-1.1%
CCC(=O)N1CCc2cc(S(=O)(=O)NCCN3CCCCC3CC)ccc21 (stereo not given)	-12%	-29	12%	-11%	1.0	-9	0.1%
CC[C@]12c3[nH]c4cc(-c5ccco5)ccc4c3CCN1C(=O)[C@@H](CC(=O)NCCCOC)C[C@@H]2C(=O)N1CCN(C(=O)C2CC2)CC1	.	0	-9%	.	.	.	4.6%
CCOP(=O)(OCC)c1nc(-c2ccc(Cl)cc2Cl)oc1N1CCCCC1	-16%[15.4 µM]	-4	-7%	?	1.7	-5	.
C/C(Cc1ccccc1)=N\NC(=O)CNC(=O)c1cccc(F)c1	7%	-10	15%	5%	-2.8	7	-1.3%
Nc1ccccc1Sc1nc2ccccc2[nH]1	-3%[15.4 µM]	26	9%	7.9µM*	-2.2	-12	.
CC[C@@]1(C(=O)OC)N[C@H](CN(C)C(=O)COC)[C@@H]2C(=O)N(C)C(=O)[C@@H]21	.	-3	6%	.	.	.	2.5%
NC(=O)c1ccc(NC(=O)CCC(=O)N2CCN(S(=O)(=O)c3ccc(Cl)cc3)CC2)cc1	2%	5	7%	13%	-2.7	-19	0.7%
O=C(CCC(=O)c1cccs1)Nc1ccccc1F	17%	-13	7%	11%	-1.3	-5	-2.9%
O=Cc1ccccc1-n1cccn1	12%[15.4 µM]	-8	4%	27%	0.6	9	.
Cc1csc(=O)n1CCC(=O)OCC(=O)Nc1ccc(F)c(F)c1F	1%	-6	9%	.	.	?	0.8%
CCCCN1C(=O)C(C)=C(C)C1OCCc1ccc(OC)c(OC)c1 (stereo not given)	-26%	2	-7%	14%	1.6	-19	1.2%
Cc1ccc(C(=O)Nc2nc3ccc(S(C)(=O)=O)cc3s2)o1	-21%	2	-7%	-4%	4.5	12	-25%
Cc1ccc(C)c(OCCC(=O)OCC(=O)N2c3ccccc3NC(=O)C2(C)C)c1	3%	-15	-17%	.	.	-12	1.7%
Cc1cccc(-c2nc3c(c(SCC(=O)N4CCOCC4)n2)COC(C)(C)C3)c1	?	0	?	4%	.	9	1.6%
CC12CCC(C(=O)Nc3c(Cl)cccc3Cl)(C(Br)C1=O)C2(C)C (stereo not given)	0%	-17	14%	-14%	7.1	-16	1.3%
Cc1sc(NC(=O)/C=C/c2ccc(C(C)C)cc2)c(C#N)c1C	4%	-4	-11%	-4%	22	0	-11%
CCc1ccc(NC(=O)CSc2nnc(C3CC3)n2CC2CCCO2)cc1 (stereo not given)	4%[15.4 µM]	-10	5%	-7%	-1.2	0	0.0%
CCOc1ccc(C(=O)NCCc2cnc[nH]2)cc1	11%	-5	6%	-2%	1.0	13	.
CCNc1nc(NC(C)C)nc(OCCOC(=O)c2ccccc2)n1	5%	0	-4%	8%	-0.7	-6	-2.3%
Cc1cc(C)cc(NS(=O)(=O)CCCS(=O)(=O)Nc2cc(C)cc(C)c2)c1	-6%	-14	-2%	.	.	.	.
S=C(NCCc1ccccc1)N/N=C/C1CCCCC1	.	.	.	13%	-0.8	-6	.
CCOc1cc(S(=O)(=O)NCc2ccccn2)ccc1Cl	-8%	-2	2%	2%	0.1	0	-1.1%
N#CCOC(=O)c1sccc1-n1cccc1	0%	-21	8%	18%	0.7	6	?
CCCCn1c(N)c(N(CCOC)C(=O)C(C)Oc2ccc(Cl)cc2)c(=O)[nH]c1=O (stereo not given)	-9%	-10	20%	.	.	-2	1.5%
COc1ccc(C2CC(c3cccs3)=NN2C(=O)CSC2=NN3CCCC(=O)N=C3S2)cc1 (stereo not given)	-33%[inhibitor]	-1	-16%	9%	1.0	15	-14%
CC(C)(C)CC(=O)Nc1cccc(-c2cn3cccnc3n2)c1	-25%	-2	0%	18%	-3.4	4	4.6%
CCOC(=O)c1ccccc1NC(=O)C1CC(=O)N(c2ccccc2)C1 (stereo not given)	-50%[inhibitor]	-5	-12%	-17%	3.5	9	-16%
CCOC(=O)C1Oc2ccccc2C(C(=O)OC)=C1C(=O)OC (stereo not given)	.	-30	10%	-5%	?	.	0.0%
CCOc1ccccc1N1CCN(C(=O)Nc2cccc(Cl)c2)CC1	3%	-16	-25%	19%	2.0	3	-0.7%
Cc1cccc(NC(=O)COn2nnc3ccc(S(C)(=O)=O)cc32)c1	4%[15.4 µM]	-2	6%	10%	-2.9	1	-7.3%
CCOc1cccc2cc(C(=O)Oc3ccc(OC)cc3)c(=O)oc12	14%[15.4 µM]	-5	-13%	?	-0.8	?	-5.9%
COc1ccc(Nc2c3c(nc4ccccc24)CCC3)c(OC)c1	8%[15.4 µM]	-9	-11%	-3%	0.8	7	-1.3%
CC1CC(C)CN(C2CCCCC2NS(=O)(=O)c2ccc(Cl)cc2)C1 (stereo not given)	3%	-3	10%	14%	-1.1	-14	.
Cc1ccc(S(=O)(=O)N2CCCCC2)cc1C(=O)OC(C)C(=O)NC1CCCCC1C (stereo not given)	9%	19	-4%	.	.	4	18%
COc1ccc(S(=O)(=O)N2CCC(NC(=O)C3CCCCC3)CC2)cc1	5%[15.4 µM]	-1	20%	13%	.	3	.
C=CCSc1nc2ccccc2c(=O)[nH]1	4%	-2	4%	-9%	2.2	.	-9.8%
O=C(N/C=C\c1ccccc1)NCc1ccc(Cl)cc1Cl	?	-2	5%	12%	1.6	3	-0.3%
O=C(Nc1ccc(F)cc1)N1CCN(CCc2ccccc2)CC1	-22%	-11	8%	6%	0.0	-2	.
COCCOC(=O)c1c(C)oc2ccc(OS(C)(=O)=O)cc12	-18%	-16	-1%	9%	-1.0	4	-0.2%
CCOc1cc(/C=C2\C(=N)N3N=C(S(=O)(=O)CC)SC3=NC2=O)ccc1OC(=O)c1ccco1	-19%	-6	4%	?	.	8	-8.3%
CC(CNC(=O)COc1ccc2c(c1)OCO2)c1ccccc1 (stereo not given)	-22%	-4	?	.	.	-20	0.3%
CC(Nc1nc(N2CCN(S(C)(=O)=O)CC2)nc2ccccc12)c1ccccc1 (stereo not given)	?	-14	5%	-9%	-1.5	12	4µM*
CC(C)(C)OC(=O)N1CC2Cc3[nH]c(=O)ccc3C(C2)C1 (stereo not given)	5%	-3	3%	18%	1.9	-4	-16%
O=C(Nc1nccs1)c1sc2cc(Cl)ccc2c1Cl	2%	-2	-8%	4%	2.9	-7	1.5%
C[C@@H]1NS(=O)(=O)[C@H]2C[C@@H]3C=C[C@]2(O3)[C@H]1OC(=O)c1ccc(C(C)(C)C)cc1	34%	-5	6%	.	.	13	-3.4%
Cc1cc(S(=O)(=O)N(Cc2ccc3c(c2)OCO3)CC2CCCO2)ccc1-n1cnnn1 (stereo not given)	-1%	-6	-2%	14%	5.5	-21	-0.8%
Cn1c(=NC(=O)C2CC2)sc2cccc(F)c21	-3%	-2	0%	2%	-0.9	?	-4.3%
O=C(Nc1cccc([N+](=O)[O-])c1)c1cc(S(=O)(=O)N2CCOCC2)cs1	-4%	-21	2%	6%	.	-18	0.9%
Cc1noc(C)c1CSCC(=O)Nc1cc(S(=O)(=O)N2CCCCC2)ccc1OC(C)C	-1%[15.4 µM]	-2	-1%	.	.	30	.
Cc1c(CC(=O)NCC(=O)N[C@H](Cc2ccccc2)C(=O)O)c(=O)oc2cc(O)ccc12	.	-11	10%	11%	-5.7	-6	4.8%

High-throughput results as filed in PubChem.
